GALR2 agonist = GALR2 (human) receptor agonism. O43603. activation, %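 (tested at 5 µM)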. GALR2-expressing cells, agonist activation read-out. 140,000 compounds, 0.48% hits;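 active = above mean plus 3 SD of all compounds, about 5% in these data, not always enough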;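 also: 0% = vehicle buffer wells and 100% = reference agonist at full effect; tested in CHO reporter cells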
Target sequence (O43603 whole entry, looked up): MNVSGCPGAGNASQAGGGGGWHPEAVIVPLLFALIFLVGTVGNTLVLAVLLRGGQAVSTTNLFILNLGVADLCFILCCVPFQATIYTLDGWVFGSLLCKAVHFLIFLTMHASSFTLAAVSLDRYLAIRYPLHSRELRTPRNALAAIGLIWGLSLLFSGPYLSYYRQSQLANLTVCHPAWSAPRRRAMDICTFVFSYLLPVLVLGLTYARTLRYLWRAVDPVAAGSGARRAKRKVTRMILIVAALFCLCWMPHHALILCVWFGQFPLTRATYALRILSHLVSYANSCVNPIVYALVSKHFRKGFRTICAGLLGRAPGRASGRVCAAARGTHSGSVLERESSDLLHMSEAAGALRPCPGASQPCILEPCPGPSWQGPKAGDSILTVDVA
Insulin prom inh = TRM-6 insulin promoter activity inhibition; TRM-6 cells (human fetal islet line), insulin promoter-eGFP reporter, imaging; reporter expression induced with tamoxifen; inhibition, % at 2 µM; 130,000 compounds, 0.9% hits;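 active = inhibition above the mean plus 3 SD, with well images judged a real hit on visual review, cut at about 60% in these data, passing the limit was not always enough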
RGS16-Gao = regulators of human RGS16-Galphao interaction; O15492+P09471; binding response (% of control), % at 10 µM; 220,000 compounds, 0.38% hits; bead-based flow cytometry RGS16-Galphao binding, fluorescence; actives lie on both sides; AID 1441;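 active = below 25% or above 175%, edge rows of some plates excepted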;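 also: Galphao activated by GDP with aluminum fluoride before binding; 100% = wells without compound and 0% = beads without RGS; some results beyond the cut were filed as inactive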
Target sequence (O15492 whole entry, looked up): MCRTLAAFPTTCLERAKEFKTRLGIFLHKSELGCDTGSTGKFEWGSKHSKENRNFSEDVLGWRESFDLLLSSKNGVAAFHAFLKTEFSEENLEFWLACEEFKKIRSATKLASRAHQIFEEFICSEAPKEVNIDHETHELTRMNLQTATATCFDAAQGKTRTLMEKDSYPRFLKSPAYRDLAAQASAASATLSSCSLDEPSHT
Target sequence (P09471 whole entry, looked up): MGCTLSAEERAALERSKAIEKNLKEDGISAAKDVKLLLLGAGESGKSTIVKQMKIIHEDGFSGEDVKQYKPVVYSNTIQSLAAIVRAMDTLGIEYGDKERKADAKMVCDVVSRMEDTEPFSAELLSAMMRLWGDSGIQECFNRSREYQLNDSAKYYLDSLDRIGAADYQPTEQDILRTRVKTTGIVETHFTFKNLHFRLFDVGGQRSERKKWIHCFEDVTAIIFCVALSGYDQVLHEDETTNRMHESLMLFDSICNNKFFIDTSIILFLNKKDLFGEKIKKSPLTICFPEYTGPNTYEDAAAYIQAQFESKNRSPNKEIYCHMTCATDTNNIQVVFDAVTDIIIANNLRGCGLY
HSV replic up = increases HSV replication in cells; HSV replication augmentation in cells, fold increase; maximum fold increase; 220,000 compounds, 0.005% hits; AID 1956;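 active = peak rise of 1.5-fold or more in the series; tested in PC3 cells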;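 also: first round at 10 µM; read as green reporter fluorescence; hits show the peak of a series up to 25 µM; 1 = signal of infected wells without compound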
PKD1 inh = PKD1 (human) kinase inhibition | Q15139 | PKD1 kinase fluorescence polarization assay | inhibition, %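 (about 10 µM by stock and volumes)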 | 200,000 compounds, 0.056% hits;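 active = inhibition of 50% or more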;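 also: controls were vehicle for no effect and a reference inhibitor for full effect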
Insulin prom inh cell count = also measured in Insulin prom inh; calls as there; normalized cell count, %; measured here: cell count, toxicity; reference of the scale not given here;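 cells exposed to compound for 48 h; stained nuclei by imaging scaled within each plate; lower means fewer cells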
HSV replic up primary fold = recorded beside HSV replic up, whose call it bears; fold increase; compound at 10 µM; measured here: primary screen fold increase 10 uM; tested in PC3 cells;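 GFP signal in the first replicate; 1 = infected wells without compound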
The depositor's hits bear a star; i = inactive; / = not tested or not shown.

SMILES	GALR2 agonist	Insulin prom inh	Insulin prom inh cell count	RGS16-Gao	HSV replic up	HSV replic up primary fold	PKD1 inh
COc1cccc(/C=N/NC(=O)c2cc3cc([N+](=O)[O-])ccc3s2)c1O	2.1	24	57	81	i	0.78	-7
CCNC(=S)N1CCc2cc(OC)c(OC)cc2C1COc1ccc(F)cc1 (configuration not stated)	/	17	110	111	i	0.98	-2
O=C(Nc1ccc2c(c1)OCO2)c1ccc2nc[nH]c2c1	-2.6	-50	103	93	i	0.88	-6
CSc1nc2cc(Cl)ccc2s1	-0.5	36	154	103	i	0.89	-7
CCC(CCC(=O)Nc1nncs1)C(=O)O (configuration not stated)	-0.9	23	34	81	i	1.1	3
CCCN1C(=O)/C(=C\c2ccncc2)SC1=Nc1ccccc1	1.6	18	77	49	i	0.89	5
COCCCNc1nc2c([nH]1)c(=O)[nH]c(=O)n2C	-0.8	/	/	102	i	0.93	-6
CC(C)CCN(N=O)[C@@H](Cc1ccccc1)CN(N=O)[C@@H](Cc1ccccc1)CN(C)N=O	/	/	/	98	i	0.83	-6
CCN(CC)C1CCN(c2nc3nonc3nc2NCCOC)C1 (configuration not stated)	/	/	/	93	i	0.85	7
CCCNC(=O)CNC(=S)N(Cc1ccccc1F)C1CCCCC1	/	-56	72	103	i	0.96	0
CC(=O)N1c2c(cc(Br)cc2S(=O)(=O)N2CCN(c3ccccn3)CC2)CC1C (configuration not stated)	-1.8	-8	91	109	i	1.2	-2
CCc1nnc(NC(=O)Cc2ccc(OCc3c(C)noc3C)cc2)s1	0.6	7	134	104	i	0.94	-10
CCS(=O)(=O)N1CCN(C(=O)c2cc(OC)cc(OC)c2)CC1	-0.2	36	178	101	i	1	2
COc1cccc(NC(=O)CNC(=O)c2ccc([N+](=O)[O-])cc2)c1	/	/	/	102	i	0.96	/
CCN(CC)CCNCc1cc(Cl)c(OCC(=O)Nc2ccccc2)c(OC)c1	/	/	/	97	i	0.87	1
CN1CCN(C2=NC(=O)/C(=C/c3cn[nH]c3-c3ccccc3)S2)CC1	/	/	/	86	i	0.87	/
O=C(O)c1cc(S(=O)(=O)NCC2CCCO2)ccc1Cl (configuration not stated)	-1.9	9	120	101	i	0.96	-7
CN(Cc1ccco1)C(=O)Cn1nc(-c2ccc(Cl)cc2)ccc1=O	/	-5	72	99	i	1.1	-6
Cc1c(Cl)cccc1NC(=O)CSc1nnc(C)n1-c1ccccc1	-0.7	-55	88	89	i	0.69	5
Cc1cc(C)cc(NC(=O)CCn2ccnc2C)c1	-1.7	-7	75	101	i	1	-4
COc1ccc(C2=NOC(C(=O)NCc3ccco3)C2)cc1OC (configuration not stated)	1.4	/	/	104	i	0.72	2
CC(C)CNC(=O)CSc1nc(-c2cccs2)cc(C(F)(F)F)n1	-2.3	38	104	100	i	0.94	0
CN(C)S(=O)(=O)c1cccc(COC(=O)C2=COCCO2)c1	-0.1	/	/	6	i	0.92	-8
On1c(-c2ccccc2)nc2ccc(Cl)cc21	0.2	/	/	101	i	0.92	-8
CCC(=O)N(Cc1ccccc1)c1ccccn1	-1.7	11	52	109	i	0.84	-2
CC(C)CNC(=O)c1noc2c1CCCC2	-1.8	10	154	100	i	0.96	-2
CN(C)/C=C/C(=O)/C=C/c1ccc(Cl)cc1Cl	/	/	/	101	i	1.1	-2
CSc1nc(N(C)NC(=O)c2ccccc2)c2ccccc2n1	-1.2	-160	12	100	i	0.93	-1
CN1C(=O)NC(c2ccccc2)C2=C1CN(c1cccc(C(F)(F)F)c1)C2=O (configuration not stated)	0.8	-19	107	99	i	0.93	-1
O=C(CCCN1C(=O)/C(=C/c2cccs2)SC1=S)Nc1cccc(C(=O)O)c1	/	-50	43	113	i	0.99	1
NS(=O)(=O)c1ccc(NC(=O)CSc2nnc(COc3ccccc3Cl)n2C2CC2)cc1	0.7	65	28	95	i	1.1	-3
CC(C)(C)C(=O)OC/C(N)=N/OC(=O)c1ccccc1	/	/	/	99	i	1.1	/
CC(=O)c1sc(NC(=O)C2COc3ccccc3O2)nc1C (configuration not stated)	-0.6	/	/	78	i	0.99	7
CCOC(=O)c1ccc(N2C(=O)CC(NC3CCN(C(=O)c4ccc(F)cc4)CC3)C2=O)cc1 (configuration not stated)	-2.8	-12	127	90	i	0.83	0
CCOc1cccc2c1OC1(C)CC2NC(=O)N1c1ccc(OC)cc1 (configuration not stated)	-1.1	46	136	97	i	0.93	9
C=CCNC(=O)c1cccc(NS(=O)(=O)c2ccc(Cl)cc2)c1	/	/	/	100	i	1	9
Cc1oc(-c2ccccc2F)nc1CN1CCC(C(=O)NCCC2=CCCCC2)CC1	-1.0	/	/	105	i	0.86	6
COc1ccc(C(=O)N/N=C/c2sc(=O)n(Cc3cccc(C(=O)O)c3)c2Cl)cc1	/	/	/	103	i	1	/
Cc1nc(NCC2CCCO2)[nH]c(=O)c1CCC(C)C (configuration not stated)	-0.8	36	86	99	i	0.76	11
O=C(CSCc1cnn(-c2ccccc2)c1-n1cccc1)NCc1ccc2c(c1)OCO2	-0.8	7	107	108	i	0.96	-5
CCCCN(C(=O)CSc1nnc2ccccn12)c1c(N)n(Cc2ccccc2)c(=O)[nH]c1=O	0.1	/	/	106	i	0.94	-4
Cc1cc(NC(=O)Nc2ccc(F)cc2F)n(C)n1	/	-23	93	100	i	1	6
CN(C(=O)C1CCOC1)c1nnc(C2CCOC2)s1 (configuration not stated)	0.1	/	/	92	i	0.87	-6
CN1C2=C(C#N)C(c3ccccc3)(C(F)(F)F)NC(=O)N2c2ccccc21 (configuration not stated)	-0.1	22	127	102	i	0.97	3
O=c1ccn(Cc2ccc(F)cc2)c2ccnc(C(F)(F)F)c12	-0.8	/	/	45	i	1.1	-8
Cc1ccc(-n2nnc(-c3ccnc4ccccc34)n2)cc1	/	/	/	130	i	1.1	-2
CN1CCN(C(=O)C2CCCCC2C(=O)O)CC1 (configuration not stated)	-0.5	/	/	128	i	1	-14
O=C1C2CC=C(Cl)CC2C(=O)N1c1ncn[nH]1 (configuration not stated)	-1.2	-70	49	103	i	1.1	-15
CCOC(=O)C1(P(=O)(c2ccc(Cl)cc2)c2ccc(Cl)cc2)CCC1	-1.6	-30	85	108	i	1.1	-19
Cc1ccc(CC(=O)NCC(c2ccco2)N(C)C)cc1C (configuration not stated)	/	67	252	101	i	1.1	2
O=C(c1cccc([N+](=O)[O-])c1)N1CCOCC1	1.4	10	129	104	i	0.93	1
CN1C(=O)CC(N2CCN(Cc3ccc(Cl)cc3)CC2)C1=O (configuration not stated)	-0.5	-41	132	99	i	0.94	2
O=Cc1ccc(OCc2nnsc2Cl)cc1	/	-14	144	106	i	0.91	9
O=C(/C=C/c1ccccc1Cl)Nc1ccc2c(c1)C(=O)NC2=O	/	-21	181	109	i	0.81	-3
COc1ccc(OC)c2c1sc(=NC(=O)C1CC1)n2C	/	/	/	101	i	0.93	/
CCOC(=O)c1cccc2c(=O)c(C(=O)c3ccc(Cl)cc3)c(C(=O)OC)[nH]c12	-0.9	-52	85	124	i	1	-8
CCOC(=O)C(NCc1ccccc1OC)(NC(=O)CC)C(F)(F)F (configuration not stated)	0.0	-79	80	102	i	1.1	6
CCC(/C=C1\Sc2ccc(OC)cc2N1CC)=C\c1sc2ccc(OC)cc2[n+]1CCCS(=O)(=O)[O-]	/	-18	104	94	i	1	-5
COc1ccc(OCCC(=O)OCC(=O)NCCC2=CCCCC2)cc1	/	/	/	103	i	0.63	-4
NC1=NC2(CCCCCC2)n2c(nc3ccccc32)N1	-0.5	8	106	96	i	0.89	-4
Other results:
SMILES	GALR2 agonist	Insulin prom inh	Insulin prom inh cell count	RGS16-Gao	HSV replic up	HSV replic up primary fold	PKD1 inh
Cc1cccc(C)c1NC(=O)C(c1ccccc1)N1CCC2(CC1)OCCO2 (configuration not stated)	-1.9	-17	60	/	i	0.85	-10
Cn1c(=O)c2c(ncn2CC(=O)N2CCN(C(=O)c3ccco3)CC2)n(C)c1=O	/	/	/	106	i	0.93	0
O=C(NC(=S)N1CCN(C/C=C/c2ccccc2)CC1)c1c(F)cccc1F	-1.3	-7	136	100	i	1	5
O=C(Nc1cc(Cl)cc(Cl)c1)N1CCCN(Cc2ccccc2)CC1	/	/	/	99	i	0.87	/
O=C1OC(Nc2ccc(Br)cn2)c2ccccc21 (configuration not stated)	-2.9	36	164	99	i	1.1	4
COc1ccc(CCNC(=O)COC(=O)c2ccc(Br)o2)cc1	-3.4	-30	113	101	i	0.92	-6
CCN1C(=O)C(O)(C2COC(C)(C)CC2=O)c2cc(Br)ccc21 (configuration not stated)	-1.0	38	112	102	i	0.85	-2
NC(=O)NC(=O)COC(=O)CCCc1c[nH]c2ccccc12	-2.4	64	60	105	/	/	2
N#Cc1ccccc1-n1c(N)c(C(=O)N2CCCC2)sc1=S	-2.6	44	139	65	/	/	-1
CCOC(=O)c1[nH]c(C(=O)O)c(CCN(CC)CC)c1C	-1.9	-54	76	103	i	0.93	-9
COc1ccc(NC(=O)Nc2ccccc2OC)cc1	-1.2	14	65	100	i	0.85	-1
O=C(NCCO)c1nc2ccccc2s1	-1.2	-44	81	97	i	0.96	-12
Cc1cc(C)c2oc(C(=O)Nc3ccc(S(=O)(=O)N4CCCC(C)C4)cc3)cc(=O)c2c1 (configuration not stated)	-1.0	-23	84	146	i	1	-8
Cc1cn(C2C=CC(CO)O2)c(=O)[nH]c1=O (configuration not stated)	-1.1	-31	127	77	i	0.99	11
Cc1ccc(NC(=O)c2ccc(CSc3nnc(C)s3)cc2)c(C)c1	-2.4	-4	119	102	i	0.98	-15

Structures listed so far that have a cyano group, in the order listed:
SMILES	GALR2 agonist	Insulin prom inh	Insulin prom inh cell count	RGS16-Gao	HSV replic up	HSV replic up primary fold	PKD1 inh
CN1C2=C(C#N)C(c3ccccc3)(C(F)(F)F)NC(=O)N2c2ccccc21 (configuration not stated)	-0.1	22	127	102	i	0.97	3
N#Cc1ccccc1-n1c(N)c(C(=O)N2CCCC2)sc1=S	-2.6	44	139	65	/	/	-1

The results go on:
SMILES	GALR2 agonist	Insulin prom inh	Insulin prom inh cell count	RGS16-Gao	HSV replic up	HSV replic up primary fold	PKD1 inh
Cc1[nH]nc(SCC(=O)NC2CCCC2)c1[N+](=O)[O-]	/	0	130	105	i	0.96	-4
COc1ccc(S(=O)(=O)N(C)CC(=O)O)c2ccccc12	-0.9	41	23	105	i	0.92	-13
N/C(=N\OC(=O)COc1ccc(Cl)cc1Cl)c1ccccn1	/	/	/	100	i	0.99	-6
Cn1nnnc1SCc1cc(=O)n2ccsc2n1	-1.1	/	/	99	i	0.94	-3
CC(C)(C)NC(=O)Cn1nnc(-c2ccccc2Cl)n1	-0.9	/	/	81	i	1.2	-7
Cc1ccc(C(c2sc3ncnn3c2O)N2CC(C)CC(C)C2)cc1 (configuration not stated)	-2.2	/	/	108	i	0.9	2
CCn1c(/C=C/N(C(C)=O)c2ccccc2)[n+](CC)c2ccc(Cl)cc21	-0.5	50	84	105	i	0.96	11
NC(=O)CSc1nccn1Cc1ccc2c(c1)OCO2	/	-21	87	97	i	0.92	0
COc1ccc(N(C(=O)C2CSC(=O)C2)C(C(=O)NC(C)(C)C)c2ccncc2)cc1 (configuration not stated)	/	40	88	103	i	1	6
CC(C)N(C(=O)Cn1c(Cl)nc2ccccc21)C(C)C	/	0	94	40	i	0.98	2
CCOc1ncccc1C(=O)NCc1ccccc1	0.2	14	109	106	i	0.88	-5
COc1ccc(-c2cc(C(=O)Nc3ccccc3N3CCOCC3)c3ccccc3n2)cc1OC	/	/	/	99	i	0.86	-3

Molecules shown so far with an aryl thioether with sulfur outside any ring (ten):
SMILES	GALR2 agonist	Insulin prom inh	Insulin prom inh cell count	RGS16-Gao	HSV replic up	HSV replic up primary fold	PKD1 inh
CSc1nc2cc(Cl)ccc2s1	-0.5	36	154	103	i	0.89	-7
Cc1c(Cl)cccc1NC(=O)CSc1nnc(C)n1-c1ccccc1	-0.7	-55	88	89	i	0.69	5
CC(C)CNC(=O)CSc1nc(-c2cccs2)cc(C(F)(F)F)n1	-2.3	38	104	100	i	0.94	0
CSc1nc(N(C)NC(=O)c2ccccc2)c2ccccc2n1	-1.2	-160	12	100	i	0.93	-1
NS(=O)(=O)c1ccc(NC(=O)CSc2nnc(COc3ccccc3Cl)n2C2CC2)cc1	0.7	65	28	95	i	1.1	-3
CCCCN(C(=O)CSc1nnc2ccccn12)c1c(N)n(Cc2ccccc2)c(=O)[nH]c1=O	0.1	/	/	106	i	0.94	-4
Cc1ccc(NC(=O)c2ccc(CSc3nnc(C)s3)cc2)c(C)c1	-2.4	-4	119	102	i	0.98	-15
Cc1[nH]nc(SCC(=O)NC2CCCC2)c1[N+](=O)[O-]	/	0	130	105	i	0.96	-4
Cn1nnnc1SCc1cc(=O)n2ccsc2n1	-1.1	/	/	99	i	0.94	-3
NC(=O)CSc1nccn1Cc1ccc2c(c1)OCO2	/	-21	87	97	i	0.92	0
